ALR H2O2 inh = human ALR oxidase inhibition via reduced H2O2; purified ALR, DTT oxidation, H2O2 HRP-luminol luminescence; inhibition, % (test concentration not listed); 290,000 tested, 3.8% active;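 active means mean and each replicate at 75% or more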;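 further: stock transfer was 7.5 nL into about 7.5 µL; 0% = neutral wells and 100% = wells with inactivated enzyme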
Target sequence (P55789 whole entry, looked up): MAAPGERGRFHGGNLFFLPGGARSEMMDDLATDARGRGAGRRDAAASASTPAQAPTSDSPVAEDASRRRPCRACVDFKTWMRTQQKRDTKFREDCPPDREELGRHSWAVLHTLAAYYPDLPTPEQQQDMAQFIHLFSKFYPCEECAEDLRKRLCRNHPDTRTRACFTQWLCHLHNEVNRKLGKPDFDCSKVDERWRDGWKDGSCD
Ecoli rRNA inh = inhibits bacterial ribosomal RNA function over humanized ribosomes; 350,000 tested, 1.6% active; E. coli WT GFP vs humanized-ribosome RFP mutants, fluorescence, 24 h; hits give low values; DMSO median 0, no signal -100; GFP signal change (wild-type ribosome), % (no concentration beside the values);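 active means significant combined selectivity score with lowered wild-type GFP, culture density cut under 30%, mutant RFP and density less affected; inactive means any of these conditions unmet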; further: one replicate is shown; some compounds called inactive have numbers as strong as hits
FGF22 binding = FGF22 (human) thermal shift binding; Q9HCT0; recombinant FGF22 thermal shift, SYPRO orange fluorescence; percent of sucrose octasulfate shift, DMSO zero; calls only at 9.99 µM; 340,000 tested, 1.5% active; AID 651658;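 active means melting point raised past a set limit in the mean and every replicate; three in four hits are not shown here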
Target sequence (Q9HCT0 whole entry, looked up): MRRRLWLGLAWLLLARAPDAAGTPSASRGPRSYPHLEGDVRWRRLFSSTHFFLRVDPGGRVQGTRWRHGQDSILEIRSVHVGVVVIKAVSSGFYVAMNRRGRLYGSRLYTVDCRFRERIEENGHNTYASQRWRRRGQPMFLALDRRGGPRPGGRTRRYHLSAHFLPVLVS
HNF4A DNA FP = change in binding of human HNF4 alpha to DNA; HNF4a-FITC DNA binding, fluorescence polarization, 1 h; activity change, % at 10 µM; 360,000 tested, 0.3% active; AID 1224865; in the data active means activity change above about 30%, passing the limit was not always enough;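 further: controls were the assay level and a saturating level of protein; the project sought stronger binding though the title names inhibitors; some compounds called inactive have numbers as strong as hits; positive values seem to mean higher polarization but the record does not say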
Ecoli growth = E. coli growth inhibition | Escherichia coli growth, OD600, 23 h; hits give low values | OD600 absorbance (concentration not given with the values) | 330,000 tested, 0.21% active;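 active means OD600 absorbance below the run mean of sample wells minus 3.6 SD, in any replicate, cut at about 0.56 in these data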;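 further: stock transfer was 300 nL into about 60 µL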
UCH37 inh = human UCH37 deubiquitinating enzyme inhibition. Q9Y5K5. purified proteasome/UCH37, Ub-AMC cleavage fluorescence. inhibition, % (no concentration beside the values). 330,000 tested, 0.33% active. AID 588478;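 active means mean of two replicates above 20%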;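 further: 0% = compound-free wells with enzyme and 100% = wells lacking proteasome; stock transfer was 100 nL into about 20 µL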
Target sequence (Q9Y5K5 whole entry, looked up): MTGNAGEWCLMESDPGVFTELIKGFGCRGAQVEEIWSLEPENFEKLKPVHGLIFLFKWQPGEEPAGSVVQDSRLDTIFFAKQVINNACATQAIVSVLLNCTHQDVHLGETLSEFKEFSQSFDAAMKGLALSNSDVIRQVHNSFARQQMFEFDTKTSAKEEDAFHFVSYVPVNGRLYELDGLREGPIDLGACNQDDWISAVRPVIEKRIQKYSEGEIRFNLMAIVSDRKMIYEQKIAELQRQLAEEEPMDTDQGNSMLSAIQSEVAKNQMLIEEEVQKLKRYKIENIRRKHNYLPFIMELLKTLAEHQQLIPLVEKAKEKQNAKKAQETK
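System: Proteasome-associated human UCH37 deubiquitinase; Input: 0.15 nM proteasome in added enzyme buffer; Also added: Ub-AMC substrate from 1 µM stock; Incubation: 30 min compound-proteasome preincubation then 25 min substrate reaction, room temperature; Detection: fluorescence, ex 355 nm, em 460 nm; Read-out: % inhibition of Ub-AMC cleavage fluorescence; Benchmarks: no-proteasome and no-compound wells.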
B2AR ag = human beta-2 adrenergic receptor agonism by FAP; response, % (concentration not given with the values); 340,000 tested, 0.43% active; P07550; Am2.2-beta2AR cells, FAP receptor internalization, flow cytometry; reference of the scale not given here;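 active means response above a set limit, near 3 SD of response in nonfluorescent compounds, cut at about 42% in these data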;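 further: stock transfer was 100 nL into about 11 µL; a reference agonist was the positive control; negative values mostly stem from fluorescent compounds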
Ecoli rRNA inh OD600 = recorded beside Ecoli rRNA inh, whose call it bears; OD600 change, %; measured here: OD600 growth;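 optical density of the mix in the first replicate; 0 = DMSO median and -100 = no signal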
Ecoli rRNA inh RFP = recorded beside Ecoli rRNA inh, whose call it bears; RFP signal change, %; measured here: RFP humanized mutant strains;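 first replicate; 0 = DMSO median and -100 = no signal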
Numbers without * were called inactive; i = inactive; nt = no result given; & = joins results of further samples. These rows are one share of the data (hit frequency here may not be typical).

SMILES	ALR H2O2 inh	Ecoli rRNA inh	Ecoli rRNA inh OD600	Ecoli rRNA inh RFP	FGF22 binding	HNF4A DNA FP	Ecoli growth	UCH37 inh	B2AR ag
CCCCOCCCNC(=O)N[C@@H](CCSC)C(=O)OC	-6	nt	nt	nt	nt	-1.1	0.6	0.4	-5
O=C1CC(c2ccccc2)CC2=C1CN(C1CCCCC1)CN2 (stereo not drawn)	-15	9	6	1.2	nt	-3.0	0.67	0.9	3
Cc1ccccc1S(=O)(=O)Cc1ccc(C(=O)NCCCOC(C)C)o1	-8	nt	nt	nt	nt	2.6	0.71	4.5	8
O=C(NCC1(O)CCCCC1)C1CCC(=O)N(Cc2ccccc2F)C1 (stereo not drawn)	-2	7	8	5.3	i	-3.0	0.71	1.2	-14
CC1CCOC2(O1)C(=O)N(CN1CCN(c3cccc(Cl)c3)CC1)c1ccccc12 (stereo not drawn)	-9	nt	nt	nt	nt	2.6	0.69	-0.1	6
Cc1ccc(C(=O)C2CCOC(C)(C)C2)cc1 (stereo not drawn)	-2	-2	-2	-2.6	i	-0.4	0.72	1.8	-4
CCn1nc(NC(=O)c2ccncc2)c2cc3ccccc3nc21	-11	nt	nt	nt	nt	-3.7	0.74	-5.1	-7
CCOc1ccc(C)cc1S(=O)(=O)NC1CCCCCC1	-9	-12	-38	-2.1	i	-0.4	0.69	1.8	17
CC(C)CNC(=O)c1cccc(NC(=O)C2CCCO2)c1 (stereo not drawn)	-2	nt	nt	nt	nt	1.3	0.64	1.6	-3
COc1ccccc1NC(=O)CN1CCN(CC(=O)Nc2ccc(C)c(F)c2)CC1	3	5	4	1.6	i	2.3	0.69	2.5	5
O=C1CCCC(=O)N1c1ccc(N2CCN(c3ccccc3)CC2)c([N+](=O)[O-])c1	nt	nt	nt	nt	nt	2.3	0.71	5.2	4
COc1ccc(C(C(=O)NC2CCCCC2)N(C(=O)c2ccco2)c2ccccc2C(C)=O)cc1OC (stereo not drawn)	-1	3	1	-2.0	i	2.1	0.68	1.5	5
O=C(N/N=C/c1ccccn1)C12CC3CC(CC(C3)C1)C2	-2	nt	nt	nt	nt	1.6	nt	nt	8
CC(=O)c1ccc(NC(=O)c2ccn[nH]2)cc1	-8	nt	nt	nt	nt	3.1	0.64	3.0	-10
c1csc(-c2nnc(COc3ncnc4sccc34)o2)c1	-12	6	2	-9.8	i	10	0.67	-2.1	-4
CC/C(=N\N=C1\SC(C)C(=O)N1Cc1ccco1)c1ccccc1 (stereo not drawn)	34	nt	nt	nt	nt	1.3	nt	nt	2
CSc1ncccc1C(=O)OCC(=O)c1ccccc1Br	4	-6	3	1.6	i	4.8	0.68	3.3	-5
CC(=O)OCC(=O)[C@@]1(O)CC[C@H]2[C@@H]3CCC4=CC(=O)CC[C@]4(C)[C@H]3[C@@H](O)C[C@@]21C	-10	5	14	-0.4	i	-2.3&1.9	nt	2.3&4.6	4&2
COCCCNC(=O)CN1C(=O)CSc2ncccc21	7	1	0	-6.4	i	-2.1	0.78	2.7	-8
Cc1ccc(S(=O)(=O)N2CCN(C(=O)CCOc3ccccc3C)CC2)cc1C	nt	-39	-41	-9.4	i	2.2	0.65	2.0	1
CCc1ccc(C2C3=C(CC(C)(C)CC3=O)Nc3c2c(=O)[nH]c2nc(C)nn32)cc1 (stereo not drawn)	32	nt	nt	nt	nt	-1.7	0.71	-265	-4
CCOC(=O)N1CCN(S(=O)(=O)c2ccc(C)cc2)C1c1ccc(OC)cc1 (stereo not drawn)	1	nt	nt	nt	nt	-4.5	0.74	2.5	-4
COc1ccc(NC(C)=O)cc1S(=O)(=O)Nc1ccccc1C(=O)N1CCCC1	nt	5	3	-3.1	i	3.1	0.66	-1.3	-2
CC(Oc1ccc(Cl)cc1Cl)c1nc(-c2ccc(NC(=O)c3cccnc3)cc2)no1 (stereo not drawn)	-10	nt	nt	nt	nt	-0.1	0.76	3.0	16
C/C(=C/c1oc2ccc(O)cc2c1[N+](=O)[O-])N(C)C	nt	nt	nt	nt	nt	8.8	0.73	8.8	-3
Additional structures:
SMILES	ALR H2O2 inh	Ecoli rRNA inh	Ecoli rRNA inh OD600	Ecoli rRNA inh RFP	FGF22 binding	HNF4A DNA FP	Ecoli growth	UCH37 inh	B2AR ag
O=C(c1ccc(CN2CCOCC2)cc1)N1CCC(Cc2ccccc2)CC1	-6	nt	nt	nt	nt	-0.6	0.7	4.0	-7
Cc1cccc(C(=O)N2CCC(c3nc4ccccc4s3)CC2)c1	-12	-33	-38	1.0	i	-4.1	0.66	0.3	-5
Nc1nc(Nc2ccc(Cl)cc2)c(NC=O)c(=O)[nH]1	42	-1	9	4.4	i	3.2	0.62	2.7	-2
Nc1cc(N)nc(SCC(=O)NNC(=O)c2ccc(Cl)cc2)n1	39	nt	nt	nt	nt	2.7	0.68	2.3	-4
CCNC(=O)NC(=O)COC(=O)CCCc1nc2ccccc2s1	nt	6	5	1.3	i	0.8	0.7	2.9	-1
O=C1C(=O)N(CCCN2CCOCC2)C(c2ccc(F)cc2)/C1=C(\O)c1ccc2c(c1)OCCO2 (stereo not drawn)	9	12	14	-1.1	i	-0.8	0.69	13	3
CC(C)c1cccc(C(C)C)c1OCCCCN1CCCC1	5	nt	nt	nt	nt	-5.7	0.68	4.0	8
CN(CCCC1CCCC1)C(=O)c1cc(COc2c(F)cccc2F)on1	-3	-34	-49	-10	i	3.3	0.71	-0.1	-1
Cc1cccc(CN2CCN(CC(=O)O)C2=O)c1	nt	nt	nt	nt	nt	-0.3	0.68	4.7	-5
O=C(O)c1ccc(-n2cccn2)nc1	5	9	12	3.5	i	0.7	0.68	-0.1	7
Cc1ccc(N(CC(=O)NCc2ccco2)C(=O)CCC(=O)Nc2nccs2)c(C)c1	0	-2	4	2.2	i	1.0	0.69	-0.4	-4
CCC(C)NC(=O)C1=CCN(S(=O)(=O)c2ccc(C)cc2)CC1 (stereo not drawn)	11	12	5	2.2	i	-4.1	0.72	3.4	7
COC(=O)c1scc(C)c1NC(=O)CSc1ccc(Cl)cc1	-5	-12	-7	2.8	nt	-0.6	0.69	1.4	10
CCCCCNC(=O)c1cccnc1SCC(=O)Nc1ccccc1OC	3	nt	nt	nt	nt	1.6	0.69	3.0	-13
COc1ccc(C)cc1NC(=O)CSc1nnc(-c2ccccn2)n1Cc1ccco1	1	nt	nt	nt	nt	6.7	0.68	1.5	-2
COCCCNC(=S)N1CCCN(c2nc3cc(C)c(C)cc3cc2C#N)CC1	-22	22	7	2.2	i	2.2	0.68	-44	13
Cc1ccc(S(=O)(=O)Nc2ccc(-n3cnnn3)cc2)c(C)c1	nt	-3	-9	1.2	i	1.2	0.7	1.2	-2
O=C(c1cccs1)n1cc(C(=S)N2CCOCC2)c2ccccc21	-9	nt	nt	nt	nt	2.0	0.75	2.3	-11
C/C(=N\NC(=O)c1cccc(Cl)c1)c1cccc(NC(=O)c2ccco2)c1	-1	nt	nt	nt	nt	0.8	nt	nt	-9
NC(=S)N/N=C/c1ccccc1OCc1cccc(Cl)c1	-9	nt	nt	nt	nt	2.8	nt	nt	0
COc1cc(C(C)=O)ccc1Oc1cnccn1	18	7	4	-0.7	i	-3.9	0.76	3.2	1
CCOC(=O)c1ccccc1CN1C(=O)c2ccccc2S1(=O)=O	0	-1	-4	0.5	i	-0.9	0.72	1.5	2
O=C(O)C1C2C=CC(C2)C1C(=O)NCCc1cccc(Cl)c1 (stereo not drawn)	-2	nt	nt	nt	nt	-6.1	0.72	2.8	2
Cc1ccc2oc3c(c(=O)c2c1)C(c1cccc(Br)c1)N(Cc1ccco1)C3=O (stereo not drawn)	nt	nt	nt	nt	nt	4.2	0.69	4.6	-4
COc1ccc(CC(=O)Nc2cc(=O)n(C)c(=O)n2C)cc1	1	7	10	-2.3	i	-2.2	0.76	6.0	3

Part of the list above, as comma-separated lines:
Compound,ALR H2O2 inh,Ecoli rRNA inh,Ecoli rRNA inh OD600,Ecoli rRNA inh RFP,FGF22 binding,HNF4A DNA FP,Ecoli growth,UCH37 inh,B2AR ag
NC(=S)N/N=C/c1ccccc1OCc1cccc(Cl)c1,-9,nt,nt,nt,nt,2.8,nt,nt,0
COc1cc(C(C)=O)ccc1Oc1cnccn1,18,7,4,-0.7,i,-3.9,0.76,3.2,1
CCOC(=O)c1ccccc1CN1C(=O)c2ccccc2S1(=O)=O,0,-1,-4,0.5,i,-0.9,0.72,1.5,2
O=C(O)C1C2C=CC(C2)C1C(=O)NCCc1cccc(Cl)c1 (stereo not drawn),-2,nt,nt,nt,nt,-6.1,0.72,2.8,2

Following part.
SMILES	ALR H2O2 inh	Ecoli rRNA inh	Ecoli rRNA inh OD600	Ecoli rRNA inh RFP	FGF22 binding	HNF4A DNA FP	Ecoli growth	UCH37 inh	B2AR ag
CN1c2ccccc2C(C)(C)C12CCCC(=O)N2 (stereo not drawn)	15	nt	nt	nt	nt	0.6	nt	-0.8	7
CC(OC(=O)c1snc(C(=O)NC2CCCCC2)c1N)C(=O)NC(C)(C)C (stereo not drawn)	-3	nt	nt	nt	nt	-1.0	0.72	-94	-1
COC(=O)CSc1cc([N+](=O)[O-])ccc1NC(=O)OC	nt	20	12	0.6	i	0.0	0.69	5.4	11
COc1ccc2[nH]c(C(=O)NCCc3ccccc3)cc2c1	-19	7	8	2.0	i	5.9	0.67	-15	4
COCCCN1C(=O)C(=O)/C(=C(/O)c2ccccc2)C1c1ccc(N(C)C)cc1 (stereo not drawn)	-7	8	8	-1.3	nt	3.7	0.69	12	-2
COC(=O)CC1=NN(c2nc3ccccc3s2)C(=O)/C1=C/N(C)C	96*	6	11	0.0	i	0.9	0.68	4.1	-8
Cn1c(=O)n(Cc2ccccc2Cl)c2ccccc21	0	-34	-35	-17	i	0.8	0.67	4.3	-5
NC(=O)C1CCCN(Cc2c(C(=O)N3CCc4ccccc4C3)nc3ccc(Cl)cn23)C1 (stereo not drawn)	-12	3	17	-0.6	i	-5.2	0.68	-1.0	-6
COc1ccc2[nH]c3c(c2c1)CCN1C(=O)C(CC(=O)NC(C)(C)C)C[C@H](C(=O)N2CCCCC2)[C@@]31C (stereo partly drawn)	nt	-3	-11	-0.1	i	3.6	0.68	-0.4	-3
Cc1ccc(/C=N/NC(=O)CN2CCN(S(=O)(=O)c3ccc(Br)cc3)CC2)s1	8	nt	nt	nt	nt	2.4	nt	nt	-3
O=C(CSc1nncn1-c1ccccc1)c1c[nH]c2ccccc12	2	22	20	4.6	nt	11	0.75	3.5	-16
CCCCN(CC)CCNC(=O)c1cn(C)c(=O)c2c1c1ccccc1n2C	-8	7	18	0.3	i	2.5	0.69	-77	-9
O=C(NCc1cccnc1)C(C(=O)c1ccc(F)cc1)n1ccccc1=O (stereo not drawn)	-5	nt	nt	nt	nt	-5.6	0.72	3.1	-2
Cn1c(N)c(C(=O)COC(=O)CN2C(=O)c3ccccc3C2=O)c(=O)n(C)c1=O	-3	3	5	-1.5	nt	3.3	nt	nt	-10
COc1ccccc1-c1nnc(NC(=O)c2cccc(N3C(=O)CCC3=O)c2)o1	-3	nt	nt	nt	i	-3.9	0.71	4.7	-6
CCCc1c(C(=O)N/N=C/c2ccc(OCc3ccccc3)c(OC)c2)nnn1-c1nonc1N	-5	1	8	0.7	i	2.8	nt	nt	9
CC(C)CC1(C)NC(=O)N(CC(=O)N2C(C)CCCC2C)C1=O (stereo not drawn)	-3	14	10	3.9	i	4.1	0.66	2.0	-3
O=C(N/N=C/c1ccoc1)c1ccc(Cl)cc1Cl	-2	5	4	-2.4	i	-3.4	nt	nt	1
O=C(N1CCOCC1)N1CCN(C(c2ccccc2)c2ccccc2)CC1	-6	nt	nt	nt	nt	1.8	0.69	-0.4	-4
COc1cc(/C=C2/C(=O)NN(c3cccc(C)c3)C2=O)ccc1OC(=O)c1ccco1	11	-9	0	1.9	i	-5.7	0.72	4.6	7

Compound activity deposited in PubChem BioAssay by several laboratories.
